Screening results: PubChem, National Center for Advancing Translational Sciences (NCATS)
MARV entry inh – blocks Marburg virus binding to or entry into cells | Marburg virus pseudotyped entry inhibition, cell reporter; control for the full effect not named in the record; about a third of the inactives were read at about 46 µM | Potency, µM (highest dose often 37.8 µM), for inactives: top-dose activity change, negative = inhibition, actives largely listed as inhibitors | 300,000 tested, 1.8% active | AID 540276; active = well fitted inhibition curve with a large enough effect; inconclusive = small, poorly fitted or top-dose-only effect, or effect the other way; inactive = flat fitted curve, though single readings scatter; tested in HEK293 cells; about a fifth of its hits are not listed in these tables; note: % is set by controls: 0 for no effect and ±100 for the full control effect; luciferase read-out
LASV entry inh – Lassa virus entry inhibition | Lassa virus pseudotype entry inhibition, cell reporter; control for the full effect not named in the record | Potency, µM (highest dose often 37.9 µM), inactives show at the top dose activity change, negative = inhibition, most hits filed as inhibitors | 300,000 tested, 1.2% active | AID 540256; active means well fitted inhibition curve with a large enough effect; inconclusive means small, poorly fitted or top-dose-only effect, or effect the other way; inactive means flat fitted curve, though single readings scatter; tested in HEK293 cells; note: % is set by controls: 0 for no effect and ±100 for the full control effect; nearly all actives have a fitted effect of over 50% in size; luciferase read-out
Cruzain inh noDet – inhibitors of Trypanosoma cruzi cruzain without detergent. P25779. 200,000 tested, 2.3% active. Potency, µM, inactives show max response, negative = inhibition, actives largely listed as inhibitors. AID 1476. purified cruzain, Z-FR-AMC fluorescence, no detergent; active = well fitted curve in the direction sought with a large enough effect; inconclusive = small, poorly fitted or top-dose-only effect, or another doubt; inactive = no such curve, though single readings can be large; an effect the other way counts as inactive or inconclusive;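 note: plate controls were enzyme without inhibitor for no effect and buffer without enzyme for full effect; nearly all actives have a fitted effect of over 40% in size; top concentration of the series not given in the record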
Target sequence (P25779 123-467 limits assumed): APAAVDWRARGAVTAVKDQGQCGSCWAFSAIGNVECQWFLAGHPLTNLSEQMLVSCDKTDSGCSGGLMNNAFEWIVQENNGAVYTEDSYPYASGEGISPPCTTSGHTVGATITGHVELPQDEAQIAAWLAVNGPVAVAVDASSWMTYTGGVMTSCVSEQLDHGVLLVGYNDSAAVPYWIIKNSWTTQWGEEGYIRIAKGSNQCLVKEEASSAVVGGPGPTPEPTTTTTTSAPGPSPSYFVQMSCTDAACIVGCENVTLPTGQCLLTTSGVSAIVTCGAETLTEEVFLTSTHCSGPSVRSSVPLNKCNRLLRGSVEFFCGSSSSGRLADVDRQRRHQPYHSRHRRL
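Detergent-free condition (0.00005% Triton X-100) in acetate buffer pH 5.5 with DTT. 1.5 nM enzyme and compound were pre-mixed 15 min, then 2 uM Z-FR-AMC substrate added; reaction progress from fluorescence change between first and third reads (60 s).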
NS1 inh – inhibitors of influenza NS1 protein function; AID 2326; S. cerevisiae slowed by influenza A NS1, growth recovery by OD600; Potency, µM (titrated, usually from 46.1 µM), without a hit: at the top dose activity, positive = more growth; 270,000 tested, 0.4% active; note: actives are rising curves; nearly all actives have a fitted effect of over 50% in size
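Growth recovery, yeast-based: influenza A NS1 expressed in S. cerevisiae causes slow growth, and suppressors are detected by OD600. The parent strain without NS1 is used as positive control.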
2A StopGo – FMDV 2A StopGo reporter, luciferase signal. human cells with a luciferase reporter of 2A StopGo recoding; control for the full effect not named in the record. 410,000 tested, 1.2% active. Potency, µM (series often up to 57.9 µM), for inactives: top-dose signal change, negative = less light; active = well fitted falling curve with a large enough effect; inconclusive = small, poorly fitted or top-dose-only effect; inactive = no such curve, though single readings can be large or run the other way; tested in HEK293T cells; note: % is set by controls: 0 for no effect and ±100 for the full control effect; nearly all actives have a fitted effect of over 45% in size; luciferase light after 4 h
SARS PLP yeast – blocks SARS-CoV papain-like protease in a yeast assay | S. cerevisiae expressing SARS-CoV PLpro, growth rescue; control for the full effect not named in the record | Potency, µM (highest dose often 32.9 µM), without a hit: at the top dose activity, positive = growth rescue | 330,000 tested, 0.19% active; note: 0% is about no effect; nearly all actives have a fitted effect of over 55% in size; growth read by luminescence after 48 h
Cruzain Triton – blocks cruzain activity in presence of Triton detergent; P25779; purified cruzain, Z-FR-AMC fluorescence, 0.01% Triton; Potency, µM, without a hit: max response, negative = inhibition, usual class: inhibitors; 200,000 tested, 0.43% active; AID 1478; active = well fitted curve in the direction sought with a large enough effect; inconclusive = small, poorly fitted or top-dose-only effect, or another doubt; inactive = no such curve, though single readings can be large; an effect the other way counts as inactive or inconclusive;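 note: plate controls were neutral wells for no effect and buffer without enzyme for full effect; nearly all actives have a fitted effect of over 40% in size; top concentration of the series not given in the record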
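Z-FR-AMC hydrolysis (2 uM substrate) by cruzain (1.5 nM) monitored kinetically at ex 360/em 450 nm after 15 min room-temperature compound exposure; 0.01% Triton X-100, pH 5.5, 5 mM DTT.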
RE007 growth inh – less growth of the S. pombe RE007 Vpr strain | S. pombe RE007 Vpr strain, BacTiter-Glo ATP luminescence, 24 h; control for the full effect not named in the record | Potency, µM (series often up to 92.2 µM), inactives show at the top dose activity change, negative = less growth | 360,000 tested, 0.21% active | AID 651644; active = well fitted falling curve with a large enough effect; inconclusive = small, poorly fitted or top-dose-only effect; inactive = no such curve, though single readings can be large or run the other way;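 note: % is set by controls: 0 for no effect and ±100 for the full control effect; nearly all actives have a fitted effect of over 50% in size; the assay follows cell death caused by Vpr and the record does not say whether a fall means rescue or toxicity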
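Fission yeast RE007 carrying one integrated HIV-1 vpr copy, seeded at OD 0.01 in PMG+AL medium with 23 nL pinned compound. Grown 24 h at 30 degrees; viability read by BacTiter-Glo luminescence after 5 min.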
* = called active by the depositor; ? = inconclusive; · = not tested or not shown; & = joins results of further samples; [ ] = dose if it differs, or a comment. Unless noted, calls come from the whole dose curve; as a rule, active means well fitted rising curve with a large enough effect; inconclusive means small, poorly fitted or top-dose-only effect; inactive means no such curve, though single readings can be large or run the other way. Potency is the fitted concentration of half-maximal effect. Outcome played no part in choosing rows. About 4.7% of those tested had a hit in this group.

SMILES	MARV entry inh	LASV entry inh	Cruzain inh noDet	NS1 inh	2A StopGo	SARS PLP yeast	Cruzain Triton	RE007 growth inh
CC(=O)N1CCN(C(=O)c2cc3c(s2)CCC(C)C3)CC1 (centres undefined)	4%	30%	·	·	38%[activator]	-3%	·	8%
CC1(C)C(=O)Nc2ccccc2N1C(=O)COC(=O)C1CCCCC1	1%	-3%	-2%	-8%	1%	-9%	-0.5%	6%
COc1ccc(-c2ccnc(SCC(=O)Nc3ccccn3)n2)cc1	-15%	-11%	-6%	1%	?	-6%	-6.3%	3%
COC(=O)N/N=C/c1cc(N=Nc2ccccc2)ccc1O	2%[46.1 µM]	-2%	·	-3%	0%	-1%	·	-28%
Cc1ccc2nc(NNC(=O)c3ccc4c(c3)OCCO4)sc2c1	14%	1%	-3%	-4%	-1%	?	-5.0%	-11%
Cc1cc(C(=O)NC2Cc3ccccc3C2)c(C)o1	-1%	·	·	-39%	65%[activator]	-1%	·	5%
CCOC(=O)c1ccc(N2C(=O)C3CC=C(C)CC3C2=O)cc1 (centres undefined)	13%	5%	14%	-18%	0%	-4%	-0.9%	-29%
CCOc1ccc(-c2nnc(SCc3nc4ccccc4[nH]3)n2N)cc1	12%	-11%	-2%	18%	23%	-3%	-17%	-2%
COc1ccc(OC)c(Nc2nc(N)nc(CSc3nnc(N)s3)n2)c1	-14%	-1%	-2%	5%	-5%	6%	-0.5%	11%
COc1ccc(CNC(=O)Cn2c(SCC(=O)Nc3ccc(OC)cc3)nc3ccccc32)cc1	·	-15%[46.1 µM]	-5%	·	-7%	·	-0.4%	·
Cc1cccc(N(CC(=O)NC(C)C)C(=O)CCC(=O)Nc2ccccn2)c1	·	·	·	12%	-1%	7%	·	4%
COc1ccccc1C1CCCN1Cc1nc(-c2cc3c(cc2Cl)OCO3)oc1C (centres undefined)	?	?	·	6%	-20%	-2%	·	-20%
CCOC(=O)N1CCN(S(=O)(=O)c2cc3c(cc2C)NC(=O)CO3)CC1	-1%	13%	9%	2%	-10%	5%	-1.8%	-4%
CCN(CC(=O)NC1CCS(=O)(=O)C1)S(=O)(=O)c1ccc2ccccc2c1 (centres undefined)	?	5%	-2%	-10%	0%	-22%	-2.4%	-13%
CCN(CC)S(=O)(=O)c1ccc(OC)c(NC(=O)c2cc(C)on2)c1	4%[46.1 µM]	7%	·	2%	2%	2%	·	13%
CCc1cccc(CC)c1NC(=S)N(CCN(C)C)C(C)c1cccnc1 (centres undefined)	?	-5%	·	·	-6%	-6%	·	-12%
CC(=NCC1CCCO1)c1c(O)n(C2CCCCC2)c(=O)[nH]c1=O (centres undefined)	·	·	·	-2%	-5%	-1%	·	2%
O=C(COc1ccccc1)Nc1ccc(S(=O)(=O)N(Cc2ccccc2)c2ccccc2)cc1	7%[46.1 µM]	-4%[46.1 µM]	-2%	·	0%	·	-0.6%	·
CC(=O)c1ccc(Nc2cc(C)nc3nc(C)nn23)cc1	17%	2%	-5%	?	-18%	-9%	-3.0%	3%
COc1ccc2oc(=O)c(-c3nc(C)cs3)cc2c1	-15%&-15%	-6%	22%	9%	37%[activator]	0%	-10%	9%
COc1ccc(NC(=O)C2CCN(S(=O)(=O)c3ccc4[nH]c5c(c4c3)CCCCC5)CC2)cc1	·	17%[46.1 µM]	-30%	·	-19%	·	1.9%	·
O=C(C1CC1)N1CCN(c2ccc([N+](=O)[O-])cc2-n2cccc2)CC1	?	?	·	-1%	-5%	-4%	·	-21%
CCSc1nncn1/N=C/c1ccc(OC)c(OC)c1	6%[46.1 µM]	-5%	-8%	-10%	30%	1%	-3.3%	11%
CC(C)C(c1nnnn1CC1CCCO1)N1CCN(C2CCCC2)CC1 (centres undefined)	1%	15%	5%	-15%	3%	4%	4.7%	6%
c1ccc(CCc2nc(-c3ccccc3)no2)cc1	-2%	?	-8%	-12%	58%[activator]	1%	-0.7%	-18%
COc1ccccc1CN1C[C@@H]2C[C@@H](c3ccccc3OC)N3CCC[C@@]23C1=O	·	·	·	0%	0%	-1%	·	1%
CN(C)/C=N/c1sc2c(c1C#N)CCCCC2	?	-1%	-17%	-12%	22%	-5%	-10%	-10%
CCCCS(=O)(=O)N1CCCC(C(=O)Oc2ccccc2)C1 (centres undefined)	·	·	·	17%	-2%	0%	·	1%
COC(=O)c1cc(OC)c(OC)cc1NC(=O)Cc1ccccc1[N+](=O)[O-]	0%	-22%[14.3 µM]	?	-12%	-20%	8%	0.5%	6%
C/C(=N\Nc1nc(C)cc(=O)[nH]1)C1CC1	1%	·	3%	-5%	8%	-9%	-8.0%	9%
Cc1ccc(C(=O)Oc2cc(C)n(C)c(=O)c2)cc1	10%	-21%	4%	-20%	-24%	5%	1.6%	-25%
NC(=O)N1CC(O)CC1C(=O)Nc1ccc(Cl)c(Cl)c1 (centres undefined)	0%	11%	8%	1%	-25%	-2%	-1.5%	0%
OC1C2CCC(C2)C1CN1CCOCC1 (centres undefined)	0%[46.1 µM]	6%[46.1 µM]	·	·	-13%	·	·	-2%
C/C(=N\NC(=S)NC1CCCCC1)c1cccc(Br)c1	-2%	-16%	8%	12%	85%[activator]	3%	-27%	-8%
O=C(CCC(=O)N1CCN(c2cccc(Cl)c2)CC1)N1CCN(c2ccccc2)CC1	·	·	·	?	?	-2%	·	-12%
CCN(c1ccccc1)S(=O)(=O)c1ccc(C(=O)N2CCN(c3ccccc3)CC2)cc1	?	7.9µM*	·	·	-22%	11%	·	-3%

Part of the list above, with bars between the fields.
mol | MARV entry inh | LASV entry inh | Cruzain inh noDet | NS1 inh | 2A StopGo | SARS PLP yeast | Cruzain Triton | RE007 growth inh
Cc1ccc(C(=O)Oc2cc(C)n(C)c(=O)c2)cc1 | 10% | -21% | 4% | -20% | -24% | 5% | 1.6% | -25%
NC(=O)N1CC(O)CC1C(=O)Nc1ccc(Cl)c(Cl)c1 (centres undefined) | 0% | 11% | 8% | 1% | -25% | -2% | -1.5% | 0%
OC1C2CCC(C2)C1CN1CCOCC1 (centres undefined) | 0%[46.1 µM] | 6%[46.1 µM] | · | · | -13% | · | · | -2%

Going on with the list.
SMILES	MARV entry inh	LASV entry inh	Cruzain inh noDet	NS1 inh	2A StopGo	SARS PLP yeast	Cruzain Triton	RE007 growth inh
NC(=O)c1nsc(C(=O)N(CCCN2CCOCC2)C(C(=O)NC2CCCCC2)c2ccc(Cl)cc2)c1N (centres undefined)	23%[46.1 µM]	-6%[46.1 µM]	·	-10%	2%	1%	·	5%
CN(C)c1ccc(/C=N/n2c(-c3cccnc3)n[nH]c2=S)cc1	?	?	·	-3%	2%	-1%	·	12%
O=C(CCN1C(=O)c2ccccc2S1(=O)=O)Nc1ccc2c(c1)OCCO2	0%	1%	0%	-7%	·	1%	1.1%	2%
CCCn1c2ccc(C)cc2c2nnc(SCCN3CCCCC3)nc21	?	-23%&-1%[46.1 µM]	?	?	-16%&-16%	0%	14µM*	-5%
CC(=O)Nc1cccc(OCC(=O)Nc2ccccc2)c1	8%	2%	10%	10%	55%[activator]	-1%	4.3%	18%
CCCc1cc(=O)[nH]c(SCc2ccc(Cl)cc2)n1	3%	23%	?	-7%	-17%	4%	-0.7%	2%
Cc1cc(C)c2c(CCl)cc(=O)oc2c1	?	?	·	-30%	28µM*	-3%	·	12%
Cc1ccc(/C=c2\sc3nc(-c4cccnc4)nn3c2=O)cc1	12%	-2%	?	-31%	16%	-6%	-1.8%	-22%
CCOc1ccc(Nc2cc3n(c(=O)n2)CCc2cc(OC)c(OC)cc2-3)cc1	-25%	11µM*	·	1%	-8%	5%	·	26%
Cc1ccc(S(=O)(=O)NCCCn2ccnc2)cc1	4%	12%	-4%	12%	17%	-10%	-2.3%	4%
O=C(Nc1nc(-c2cccs2)cs1)c1ccc(Cl)cc1	?	?	?	-52%	-34%	-25%	-6.1%	?
O=C(/C=C\Nc1ccccc1Br)c1ccc2c(c1)OCO2	5.6µM*	·	·	·	-88%	-7%	·	-12%
CC#CC(=O)N1CCC(CCC(=O)N(C)Cc2ccccc2)CC1	·	·	·	13%	-2%	-10%	·	2%
Cc1cc(C)cc(OCc2nnc(SCC(=O)OC3CCCCC3)o2)c1	6%	0%	3%	-7%	-19%	-3%	-6.9%	3%
CCOc1ccc(NC(=O)NC2(C(=O)NCc3ccco3)CCCCC2)cc1	-16%[46.1 µM]	·	·	8%	14%	0%	·	1%
O=C(NCc1ccc2c(c1)OCO2)c1ccc(-c2ccc(Cl)cc2)o1	-1%	?	-7%	-86%	·	-13%	-9.7%	-12%
O=C(Nc1ccccc1O)c1csc2c1CCCC2	7%	?	·	-11%	11%	-3%	·	?
OCC1OC(n2ccc3c(NO)ncnc32)C(O)C1O (centres undefined)	0.32µM*	?	·	·	?	·	·	14%
CC(C(=O)N1CCN(Cc2ccccc2)CC1)n1ncn2cccc2c1=O (centres undefined)	·	·	·	0%	0%	4%	·	-3%
CC(=O)Nc1cc2c(cc1C(=O)C(C)C)OCCO2	27%	1%	4%	3%	-29%	·	0.4%	-16%
CC(C)Nc1nc(SCC(=O)Nc2ccccc2)nc(N2CCOCC2)n1	-4%[46.1 µM]	-4%	-7%	-23%	-8%	-3%	-3.3%	-14%
CCN1CCc2c(sc(NC(=O)c3ccc(S(=O)(=O)N(CCOC)CCOC)cc3)c2C(N)=O)C1	·	?	-18%	·	-24%	·	-0.1%	·
Cc1nc2c(c(C)nn2-c2ccccc2)c(C)c1CCC(=O)Nc1ccc(CN2CCCC2)cc1	10µM*	?	·	6%	-25%	-1%	·	-21%

An excerpt taken from the entries so far, as a working copy:
SMILES	MARV entry inh	LASV entry inh	Cruzain inh noDet	NS1 inh	2A StopGo	SARS PLP yeast	Cruzain Triton	RE007 growth inh
CCN1CCc2c(sc(NC(=O)c3ccc(S(=O)(=O)N(CCOC)CCOC)cc3)c2C(N)=O)C1	·	?	-18%	·	-24%	·	-0.1%	·
Cc1nc2c(c(C)nn2-c2ccccc2)c(C)c1CCC(=O)Nc1ccc(CN2CCCC2)cc1	10µM*	?	·	6%	-25%	-1%	·	-21%
